# H5N1 CPE: antiviral screen in MDCK cells, H5N1 avian flu; cytopathic effect, luminescence, 72 h; stronger effect = higher value; no value below 0 was filed and about half of the inactive calls have no number; reference of the scale not given here; inhibition, % at 50 µM; 0.07% of 96,000 active; AID 740; in the data active = inhibition above about 25%
# * = called active by the depositor; i = inactive. Some of the compounds tested. The share of hits here may be higher or lower than overall.
smiles | H5N1 CPE
O=C(Nc1cccc(-c2nc3ncccc3o2)c1)c1sc2cc(Cl)ccc2c1Cl | i
CC(C)OP(=O)(c1ccc(N(C)C)cc1)C(O)c1ccccc1 (stereo unspecified) | 0.1
COc1ccc(NC(=O)c2nc3nc(C)cc(C(F)F)n3n2)cc1OC | 0.4
COc1ccc2[nH]c3nc(SCC(=O)NNC(=O)c4ccc(OC)c(OC)c4)nnc3c2c1 | i
C/C(=N\NC(=O)c1cccc(S(=O)(=O)Nc2ccccc2Cl)c1)c1ccc(-n2ccnc2)cc1 | 0.9
CN1CCN(C(=S)c2ccc(Cl)cc2)CC1 | i
O=c1c2c(-c3ccco3)csc2nc(SCc2cn3cccnc3n2)n1-c1ccccc1 | 0.5
CCC(C)NCCOCCOc1ccc(F)cc1 (stereo unspecified) | 0.1
CC(=O)N1CCC2(CC1)C(C#N)=C(N)Oc1n[nH]c(C(F)(F)F)c12 | i
COC(=O)Cn1cnc2c(nnn2-c2ccc(C)cc2)c1=O | 0.0
O=C(c1ccc2c3c(cccc13)CC2)N1CCOCC1 | 1.4
Cc1ccc(CS(=O)(=O)CCC(=O)NCCC(C)C)cc1 | i
Clc1ccccc1-c1ccc(CN2CCN(c3ccccc3)CC2)o1 | 1.2
Cc1nnc(NC2=NCCCCC2)o1 | i
O=C(NCCC1=CCCCC1)C1CC(=O)N(C2CCCCCC2)C1 (stereo unspecified) | i
CC(=O)c1cc2c(cc1NC(=O)CN1CCOCC1)OCO2 | 1.7
COc1cccc(N2CCN(C(=S)NCCc3ccccc3)CC2)c1 | i
Cc1ccc(S(=O)(=O)N2CCN(C(=O)CSc3nnc(C)c(=O)[nH]3)CC2)cc1 | 1.1
Nc1nonc1NC(=O)CSc1nc2ccccc2s1 | 0.5
CC(=C1C2C=CC1C1C(=O)NC(=O)C21)c1ccccc1 (stereo unspecified) | 1.2
c1ccc(-n2nnnc2Oc2ccc(-n3ccnc3)cc2)cc1 | i
CCN(CC)CCN1C(=O)C(=O)/C(=C(/O)c2c(C)[nH]c(C(=O)OC)c2C)C1c1ccccc1 (stereo unspecified) | 0.7
O=C(NCc1ccccn1)/C(=N/O)c1ccccc1 | i
Cc1cc(NC(=O)c2sccc2C)n(-c2cccc(Cl)c2)n1 | i
Cc1ccc(-c2nc3cc(Cl)ccc3o2)cc1 | i

# Some of the entries above in a different format:
O=c1c2c(-c3ccco3)csc2nc(SCc2cn3cccnc3n2)n1-c1ccccc1
  H5N1 CPE: 0.5

CC(=O)c1cc2c(cc1NC(=O)CN1CCOCC1)OCO2
  H5N1 CPE: 1.7

Cc1nnc(NC2=NCCCCC2)o1
  H5N1 CPE: i

Nc1nonc1NC(=O)CSc1nc2ccccc2s1
  H5N1 CPE: 0.5

# The results go on:
smiles | H5N1 CPE
CCC1CCCCN1CCNC(=O)CNS(=O)(=O)c1ccc2nc(C)sc2c1 (stereo unspecified) | 1.1
Cc1ccc(-n2ncc3c(=O)n(CC(=O)NC4CCCCC4)cnc32)cc1 | 0.5
CSCC[C@H](NC(=O)NCc1cccs1)C(=O)O | i
O=C1CC(c2ccc(Cl)cc2)n2nc(N3C(=O)CCC3=O)nc2N1 (stereo unspecified) | i
CCN(CC)S(=O)(=O)c1ccc(C(=O)NCc2ccc(C)cc2)cc1 | i
O=C(Nc1ccc2c(c1)OCCO2)c1cc(-n2cnnc2)ccc1Cl | 3.8
CC1(C)CC(=O)C2=C(C1)OC(N)=C(C#N)C2c1ccc(OC(=O)N2CCOCC2)cc1 (stereo unspecified) | i
O=C(NCc1ccccc1)c1ccc2nccnc2c1 | 0.8
COc1ccccc1-n1c(SCC(=O)NC(C)(C)C)nnc1-c1ccco1 | 0.4
O=C(O)CC1C(=O)NCCN1CCCc1ccccc1 (stereo unspecified) | i
Cc1ccc(NS(=O)(=O)c2ccc(OCC(=O)Nc3cccc([N+](=O)[O-])c3)c(C)c2)cc1 | i
Cc1nc2nc[nH]c2cc1Br | 0.2
Cc1ccc2cc(C(c3nnnn3C3CCCC3)N3CCN(c4ccc(F)cc4)CC3)c(=O)[nH]c2c1 (stereo unspecified) | i
Cc1ccn2cc(-c3nonc3C)cc2c1 | i
CCN(C(=O)COC(=O)c1c(-c2ccccc2)noc1C)C1CCS(=O)(=O)C1 (stereo unspecified) | i
CC(Sc1nc2ccccc2s1)C(=O)Nc1nnc(C(C)C)s1 (stereo unspecified) | 0.8
Clc1ccc(Oc2nc(N3CCOCC3)nc(N3CCOCC3)n2)cc1 | i
CCCCCCOC(=O)c1ccccc1NC(=O)/C=C/C(=O)O | i
Oc1ccc2[nH]cnc2c1CN1CCCCC1 | 0.5
O=C(C1CCC(=O)N1C1CCCC1)N1CCC2(CC1)OCCO2 (stereo unspecified) | 0.5
Cc1cc(NS(=O)(=O)c2ccc(NC(=O)c3cnc4scc(C)n4c3=O)cc2)nc(C)n1 | 3.4
O=C(NC1CC1)C1CSC(c2cccnc2)=N1 (stereo unspecified) | i
COC(=O)C(C(=O)OC)=C(/C=C/C=C/N(C)C)N(C)C | i
CCCCn1c(SCC(=O)Nc2nnc(CC)s2)nc2c1c(=O)n(C)c(=O)n2C | 0.3
Cc1ccc(C(=O)NCCN2CCOCC2)cc1Cl | i
COc1ccc(C)cc1NC(=O)CN1CCN(S(=O)(=O)c2ccc(Cl)cc2)CC1 | i
CC1=C(C(=O)NC2CCC(C)CC2)C2(CCC(C)CC2)OC1=O (stereo unspecified) | i
CCCCN(C(=O)CSc1nnc(Nc2ccc(C)c(C)c2)s1)c1c(N)n(Cc2ccccc2)c(=O)[nH]c1=O | i
O=C(NCCCN1CCCC1)c1cccc(N2CCCC2=O)c1 | 0.4
CCC/C(O)=C1\C(=O)CC(c2ccccc2)CC1=NC (stereo unspecified) | i
Cc1cc(C)c2c(N)c(C(=O)c3ccccc3)oc2n1 | 1.2
CCN(c1cccc(C)c1)S(=O)(=O)c1cccc(C(=O)O)c1 | 0.2
C=CCNc1nnc(-c2ccncc2)s1 | 5.2
CCCC(C(=O)NC1CCCC1)N(C(=O)Cn1nnc(-c2ccc(C)o2)n1)C1CCCC1 (stereo unspecified) | i
CCCc1cc(=O)[nH]c(SCC(=O)CSc2nc(CCC)cc(=O)[nH]2)n1 | 0.2
CC(=O)Nc1ccc(SCC(=O)N(CCC#N)c2cc(C)cc(C)c2)cc1 | 2.7
COc1ccc(/C=N/NC(N)=S)cc1OC(=O)c1cccc2ccccc12 | i
Cc1nn(C)c(C)c1NC(=O)CCSc1nc(-c2ccco2)cc(C(F)(F)F)n1 | i
Cc1c(C(=O)N2CCN(Cc3ccccc3)CC2)sc2ncnc(N3CCOCC3)c12 | 1.2
O=C(CN1CCOc2ccccc21)NCc1cccs1 | 0.3
COc1cc(C(=O)N[C@H](C(=O)NC2CCCCCC2)C(C)C)cc(OC)c1OC | i
O=C(CCn1c(=O)oc2ccccc21)NCc1ccc2c(c1)OCO2 | 0.7
COc1ccccc1N1CCN(CC(=O)Nc2cc(F)ccc2C)CC1 | i
C/C(=N\NC(=O)c1[nH]c2c([N+](=O)[O-])cc(C)cc2c1-c1ccccc1)c1cccnc1 | 1.6
CCc1ccc2c(c1)/C(=N/N(C)C(=S)NC)C(=O)N2 | 0.6
Cc1c(C#N)c2ncnc(N)c2n1-c1ccccc1 | 0.1
CC1(C(=O)NC(=S)N(CCC#N)c2ccccc2)CC1(Cl)Cl (stereo unspecified) | i
CN(C)c1ccc(N/C=C/C(=O)c2ccc(F)cc2)cc1 | i
COc1ccc(CC2C(=O)OC(C)(C)OC2=O)cc1 | 0.4
O=C(CCC(=O)c1cccs1)NCc1ccc(F)cc1 | i

# Pulled by compound from above (three):
smiles | H5N1 CPE
CC1=C(C(=O)NC2CCC(C)CC2)C2(CCC(C)CC2)OC1=O (stereo unspecified) | i
CC(C)OP(=O)(c1ccc(N(C)C)cc1)C(O)c1ccccc1 (stereo unspecified) | 0.1
CN1CCN(C(=S)c2ccc(Cl)cc2)CC1 | i

# (continued)
smiles | H5N1 CPE
NS(=O)(=O)c1ccc(CCNC(=O)C2CCCCC2)cc1 | i
Cc1cc(C)cc(N(C(=O)Cn2nnc3ccccc32)C(C(=O)NCc2ccco2)c2ccncc2)c1 (stereo unspecified) | 0.5
N/C(COc1ccccc1)=N\NC(=O)c1cccnc1Oc1ccccc1 | 0.2
CCOC(=O)c1cnc2cc(-c3ccc(C)cc3)nn2c1-c1ccccc1 | i
CCc1cc2c(-c3ccccc3)cc(=O)oc2c(CN2CCOCC2)c1O | 1.8
Clc1ccc(CCNc2nc3ccccc3n3nnnc23)cc1 | 0.8
Cc1ccc(S(=O)(=O)c2nc(-c3ccco3)oc2SCC(=O)NCC2CCCO2)cc1 (stereo unspecified) | 0.5
CC1(C)CC(=O)c2cn3nc(C(F)(F)F)nc3nc2C1 | 0.5
CCCNC(=O)C(Cc1ccccc1)NS(=O)(=O)c1ccc2c(c1)CCC(=O)N2 (stereo unspecified) | 1.3
CCOc1ccc(N2C(=O)CC(N3CCOCC3)C2=O)cc1 (stereo unspecified) | 1.0
COc1cc2[nH]c(=O)c(C(=O)NCCCN3CCCCC3)c(O)c2cc1OC | 1.1
COc1ccc(CCNC(=O)COC(=O)c2ccc(Br)o2)cc1 | i
O=C1OC(Nc2ccc(Br)cn2)c2ccccc21 (stereo unspecified) | i
CCOC(=O)C(NCc1ccccc1OC)(NC(=O)CC)C(F)(F)F (stereo unspecified) | i
NC1=NC2(CCCCCC2)n2c(nc3ccccc32)N1 | i
CN1C(=O)CC(N2CCN(Cc3ccc(Cl)cc3)CC2)C1=O (stereo unspecified) | 0.1
CN(C(=O)C1CCOC1)c1nnc(C2CCOC2)s1 (stereo unspecified) | i
CN1C2=C(C#N)C(c3ccccc3)(C(F)(F)F)NC(=O)N2c2ccccc21 (stereo unspecified) | 0.5
CCOC(=O)C1(P(=O)(c2ccc(Cl)cc2)c2ccc(Cl)cc2)CCC1 | 0.9
O=C1C2CC=C(Cl)CC2C(=O)N1c1ncn[nH]1 (stereo unspecified) | i
CN1CCN(C(=O)C2CCCCC2C(=O)O)CC1 (stereo unspecified) | i
CN1CCN(C(=O)Cc2nc3ccccc3[nH]2)CC1 | 0.8
CCOc1cccc2c1OC1(C)CC2NC(=O)N1c1ccc(OC)cc1 (stereo unspecified) | i
CCOC(=O)c1ccc(N2C(=O)CC(NC3CCN(C(=O)c4ccc(F)cc4)CC3)C2=O)cc1 (stereo unspecified) | 0.1
NS(=O)(=O)c1ccc(NC(=O)CSc2nnc(COc3ccccc3Cl)n2C2CC2)cc1 | 0.2
CN1C(=O)NC(c2ccccc2)C2=C1CN(c1cccc(C(F)(F)F)c1)C2=O (stereo unspecified) | i
O=C(CSCc1cnn(-c2ccccc2)c1-n1cccc1)NCc1ccc2c(c1)OCO2 | 1.2
Cc1nc(NCC2CCCO2)[nH]c(=O)c1CCC(C)C (stereo unspecified) | 1.5
Cc1oc(-c2ccccc2F)nc1CN1CCC(C(=O)NCCC2=CCCCC2)CC1 | i
CN(C)S(=O)(=O)c1cccc(COC(=O)C2=COCCO2)c1 | 0.2
On1c(-c2ccccc2)nc2ccc(Cl)cc21 | i
COc1ccc(C2=NOC(C(=O)NCc3ccco3)C2)cc1OC (stereo unspecified) | i
Cc1cc(C)cc(NC(=O)CCn2ccnc2C)c1 | 0.4
CSc1nc(N(C)NC(=O)c2ccccc2)c2ccccc2n1 | i
COc1ccc(-n2c(O)c(C=Nc3c(C)n(C)n(-c4ccccc4)c3=O)c(=O)[nH]c2=O)cc1 | i
CC(C)CNC(=O)c1noc2c1CCCC2 | i
CCC(=O)N(Cc1ccccc1)c1ccccn1 | 0.3
CCS(=O)(=O)N1CCN(C(=O)c2cc(OC)cc(OC)c2)CC1 | 1.3
CCc1nnc(NC(=O)Cc2ccc(OCc3c(C)noc3C)cc2)s1 | i
CC(=O)N1c2c(cc(Br)cc2S(=O)(=O)N2CCN(c3ccccn3)CC2)CC1C (stereo unspecified) | 0.3
Cc1c(Cl)cccc1NC(=O)CSc1nnc(C)n1-c1ccccc1 | i
O=C(O)c1cc(S(=O)(=O)NCC2CCCO2)ccc1Cl (stereo unspecified) | 0.7
CCC(CCC(=O)Nc1nncs1)C(=O)O (stereo unspecified) | i
COCCCNc1nc2c([nH]1)c(=O)[nH]c(=O)n2C | 0.4
O=C(O)c1ccc(Cl)c(S(=O)(=O)NCC2CCCO2)c1 (stereo unspecified) | i
CSc1nc2cc(Cl)ccc2s1 | i
O=C(Nc1ccc2c(c1)OCO2)c1ccc2nc[nH]c2c1 | i
O=C(Oc1ccc(Cl)cc1)c1ccc2nccnc2c1 | i
CCOC(=O)c1ccc(NC(=O)COC)cc1 | 0.8
O=c1c2c3c(sc2n(CCN2CCOCC2)c(=O)n1Cc1ccco1)CCCCC3 | 1.5

# (listing goes on)
smiles | H5N1 CPE
COc1cc(NC(=O)CN2CCN(c3ccccc3F)CC2)cc(OC)c1 | i
Cc1nc2c3cc(Cl)ccc3n(CCN3CCCCC3)c2s1 | 0.4
CCOC(=O)N1CCN(CCC(=O)Nc2cccc(Br)c2)CC1 | i
COc1ccc(N=C2S/C(=C\c3ccc(C)o3)C(=O)N2CC(C)C)cc1 | i
Cc1oc(C(C)(C)C)cc1C(=O)Nc1cccc(C(=O)O)c1 | i
O=C(NCCc1ccccn1)c1cccc(S(=O)(=O)N2CCCCCC2)c1 | 0.4
Cc1ccc(-c2cc(-c3ccccc3)c3c(N)c(S(C)(=O)=O)sc3n2)cc1 | 0.3
O=C(CSc1nn(-c2ccc(F)cc2)c(=S)s1)N1CCN(C(=O)c2ccco2)CC1 | 0.1
CC1CC(C)CN(S(=O)(=O)c2ccc(C(=O)NCc3ccc4c(c3)OCO4)cc2)C1 (stereo unspecified) | 2.8

# Screening results deposited in PubChem BioAssay by SRMLSC.
